A1 inh: inhibitors of the anti-apoptotic protein A1, read as caspase activation. MEF A1-2A-BIM cells, Caspase-Glo 3/7 luminescence, 3 h; percent of clofoctol response, vehicle zero. caspase activation, % (no concentration beside the values). hit rate 0.066% among 330,000. AID 2462;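 active = over half of replicate activation scores above 10%, or exactly half above 10 with the replicate mean above 10; inconclusive = replicate mean below 10 yet half the replicates above 10; inactive = over half of replicates below 10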;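 also: wells of about 30 µL received 50 nL stock; many hits fall short of the cut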
RanGTP-Imp inh: disruptors of Ran-importin-beta complex formation – biochemical, FRET, CFP-Ran, YFP-importin-beta, homogeneous, primary screen; cell-free CFP-Ran/YFP-importin-beta FRET ratio; inhibition, % (test concentration not listed); hit rate 1.1% among 300,000; AID 2216;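 active = most replicates above 15%; inconclusive = exactly half above 15%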;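 also: 0% = DMSO wells and 100% = Ran loaded with GDP instead of GTP; wells of about 40 µL received 100 nL stock; the first replicate is given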
AF4-AF9 inh: inhibitors of human MLL-AF4/AF9 interaction; P42568; inhibition, % at 10 µM; hit rate 0.47% among 350,000; AlphaScreen, biotin-AF4 peptide binding to FLAG-AF9; AID 651704;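 active = every replicate reaching a set inhibition limit, whatever the replicate mean, cut at about 25% in these data; inconclusive = mean inhibition reaches that limit but some replicates miss it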;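 also: 0% = plate neutral control median and 100% = total signal loss; the record names both 10 and 1 µM as test concentration; the first replicate is given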
LANA-H2A inh: blocks KSHV LANA binding to histone H2A/H2B. Q9QR71. cell-free LANA-H2A/H2B peptide, fluorescence polarization. inhibition, % (concentration not given with the values). hit rate 0.6% among 320,000. AID 2629; in the data active = inhibition mostly above about 10%, no sharp cut-off; inactive = mostly below about 6.7%;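 also: stock transfer was 7.5 nL into about 10 µL; 0% = median of vehicle wells and 100% = median of positive control wells; one replicate is shown; the record names a cut of 25% in any replicate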
Target sequence (Q9QR71 whole entry, looked up): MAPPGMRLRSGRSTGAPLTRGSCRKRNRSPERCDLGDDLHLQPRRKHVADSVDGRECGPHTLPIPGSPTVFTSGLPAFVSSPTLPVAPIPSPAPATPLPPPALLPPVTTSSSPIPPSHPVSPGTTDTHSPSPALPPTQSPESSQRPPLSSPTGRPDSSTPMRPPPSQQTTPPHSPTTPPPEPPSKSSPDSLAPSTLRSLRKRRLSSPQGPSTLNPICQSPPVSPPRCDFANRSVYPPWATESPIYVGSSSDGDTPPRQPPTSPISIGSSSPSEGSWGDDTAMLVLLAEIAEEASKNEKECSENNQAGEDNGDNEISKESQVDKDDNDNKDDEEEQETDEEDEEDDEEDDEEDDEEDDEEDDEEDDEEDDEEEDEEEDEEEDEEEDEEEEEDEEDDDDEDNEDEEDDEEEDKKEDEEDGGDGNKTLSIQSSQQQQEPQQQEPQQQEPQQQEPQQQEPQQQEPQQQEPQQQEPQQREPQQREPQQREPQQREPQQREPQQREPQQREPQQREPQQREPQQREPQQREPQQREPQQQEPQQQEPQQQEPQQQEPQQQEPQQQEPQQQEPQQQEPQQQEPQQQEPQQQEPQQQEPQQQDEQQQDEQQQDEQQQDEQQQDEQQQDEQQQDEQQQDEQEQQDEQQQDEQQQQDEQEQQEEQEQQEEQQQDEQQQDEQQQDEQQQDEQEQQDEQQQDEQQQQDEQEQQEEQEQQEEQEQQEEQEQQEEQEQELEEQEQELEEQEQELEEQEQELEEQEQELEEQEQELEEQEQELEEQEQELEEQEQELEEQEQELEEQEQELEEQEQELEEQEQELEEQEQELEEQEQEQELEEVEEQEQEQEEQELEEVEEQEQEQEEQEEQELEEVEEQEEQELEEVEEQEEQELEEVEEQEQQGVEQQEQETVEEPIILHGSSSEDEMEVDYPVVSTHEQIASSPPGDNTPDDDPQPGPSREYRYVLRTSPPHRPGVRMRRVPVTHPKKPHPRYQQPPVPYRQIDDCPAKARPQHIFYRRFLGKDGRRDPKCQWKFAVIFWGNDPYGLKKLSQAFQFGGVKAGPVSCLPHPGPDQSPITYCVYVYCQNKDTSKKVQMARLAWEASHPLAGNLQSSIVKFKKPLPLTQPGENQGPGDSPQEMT
Calb FLC: affects C. albicans growth with fluconazole | C. albicans CaCi-2 (fluconazole-resistant clinical isolate) + fluconazole, Alamar Blue growth, 48 h | growth inhibition, % (concentration not given with the values) | hit rate 0.57% among 300,000 | AID 1979;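 active = most replicates above 75%; inconclusive = exactly half above 75%; inactive = most below 75%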;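 also: all wells also contain fluconazole at 8 µg/ml as a sub-toxic cotreatment; 0% = median of DMSO wells and 100% = median of geldanamycin control wells; wells of about 8 µL received 7.5 nL stock; the first replicate is given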
Beta cell apopt: blocks beta cell apoptosis. INS-1E cytokine-induced death, ATP luminescence, 48 h; percent of positive-control rescue, neutral wells zero. protection from apoptosis, % (test concentration not listed). hit rate 0.8% among 300,000;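 active = all replicates at 75% or more, or half of them and the mean; inconclusive = half reach 75% but not the mean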;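 also: 0% = cytokine-treated negative control wells and 100% = positive control rescue; higher means more ATP so stronger rescue from cytokine killing; wells of about 40 µL received 100 nL stock; the first replicate is given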
T cruzi repl: T. cruzi replication inhibition; T. cruzi beta-gal in NIH3T3, luminescence, 90 h; inhibition, % (no concentration beside the values); hit rate 1.4% among 300,000;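 active = mean inhibition across valid replicates above about 55%, limit read from the data; inconclusive = mean below that limit but half or more replicates reach it; inactive = mean below it, under half of replicates reach it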;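 also: signal also drops with host cell toxicity which is not excluded here; 0% = plate median of DMSO wells and 100% = zero luminescence signal; higher percent means less beta-gal luminescence so fewer parasites; stock transfer was 50 nL into about 50 µL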
Vif A3G: HIV-1 Vif–A3G interaction blockers – biochemical, TR-FRET, GST-Vif 1-94, biotin-A3G peptide, dose response retest, primary screen (AID 1117319) | TR-FRET GST-Vif / biotin-A3G peptide binding; higher % means a stronger effect; test concentration not given here; strong numbers were not always called active | inhibition, %, or IC50 in µM where a hit was titrated | hit rate 0.57% among 260,000;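 active = above the screen mean plus three standard deviations and confirmed in dose response; inconclusive = results disagree or hit not tested in dose response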;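 also: Vif residues 1-94 fused to GST binding biotinylated APOBEC3G peptide 110-148; 0% = full assay without inhibitor and 100% = GST in place of GST-Vif; retest series ran down from 100 µM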
* hit, by the source's call; u = inconclusive; x = no result given; & = joins results of further samples.

SMILES	A1 inh	RanGTP-Imp inh	AF4-AF9 inh	LANA-H2A inh	Calb FLC	Beta cell apopt	T cruzi repl	Vif A3G
CCN(CC)c1ccc(NC(=O)Nc2cccc3ccccc23)cc1	-1.2	6.0	x	3.2	-5.5	-4.9	7.5	-3.8%
Cc1cc(N2C(=O)C(=O)/C(=C(/O)c3ccccc3)C2c2cccc(Br)c2)no1 (stereo not drawn)	-1.3	-3.2	6.7	2.0	u	-3.1	18.3	x
CC1CCc2c(C(=O)NCc3ccccn3)csc2C1 (stereo not drawn)	0.0	-2.1	2.7	0.3	-2.9	-3.2	-3.4	0.9%
COc1ccc(/C=C/C(=O)NNC(=O)c2ccncc2)c(OC)c1	u	x	-2.3	6.8	x	-2.8	x	-8.0%
COc1ccc(C)cc1S(=O)(=O)N(CC(=O)Nc1cccc([N+](=O)[O-])c1)c1ccccc1	0.9	0.2	0.8	-3.8	4.0	13.5	11.6	x
O=C(O)c1ccccc1-c1ncc(-c2ccccc2)o1	0.8	u	-3.8	-4.1	9.7	-5.0	18.1	x
Cc1ccc(S(=O)(=O)NNC(=O)CCC(=O)Nc2ccc(C)c(C)c2)cc1	0.6	-0.5	x	0.6	0.7	-1.5	-10.1	9.6%
O=C(Nc1cc(Cl)ccn1)C1CCN(S(=O)(=O)c2cccs2)CC1	0.6	-2.8	x	-1.2	34.0	1.1	2.6	56.8µM*
CCOc1ccc2nc(C)cc(Nc3cccc([N+](=O)[O-])c3)c2c1	0.1	-0.4	3.1	0.8	-5.0	3.7	24.0	-3.9%
CC(C)(C)c1ccc(C(=O)Nc2ccc(O)c3c(=O)cc(-c4ccccc4Cl)oc23)cc1	-0.4	-1.3	x	6.1	6.9	x	-7.5	3.4%
Cc1ccccc1Cc1c(C)nc2nc(SCC(=O)NCCCN3CCCC3)nn2c1C	0.2	0.3	15.0	-15.9	-5.2	-1.7	-4.7	x
CCC(=O)Nc1ccc(NC(=O)CCc2ccccc2)cn1	0.2	1.7	-3.3	5.7	17.2	0.6	3.7	x
CCC1CN(C(=O)NCc2cccc(OC)c2)c2cc(Cl)ccc2O1 (stereo not drawn)	0.4	4.6	1.7	-1.7	1.1	-0.1	20.6	-1.1%
Cc1ccccc1C(=O)N1CCN(c2ccc([N+](=O)[O-])c(NCc3ccco3)c2)CC1	-0.4	-1.8	x	4.5	-6.7	6.3	11.8	4.2%
CCn1cc(-c2ccnc3cc(C(=O)O)nn23)c(C)n1	0.6	2.1	1.6	-3.1	0.7	1.7	-1.9	3.0%
CCC1Oc2ccccc2N(CC(=O)NCCc2ccc(OC)c(OC)c2)C1=O (stereo not drawn)	-0.1	3.2	x	19.6	5.8	-0.4	5.9	x
CCOC(=O)CCCNc1ccc([N+](=O)[O-])cc1[N+](=O)[O-]	0.0	1.7	x	-1.5	11.0	2.6	-4.3	x
O=C(Nc1cccc(Cl)c1)N1CCN(Cc2ccccc2)CC1	-2.9	-0.3	2.6	-0.3	-11.2	4.2	-10.0	-6.0%
COc1cc(CN2CCNC(=O)C2CC(=O)N2CCCCO2)cc(OC)c1 (stereo not drawn)	-0.1	8.3	1.5	4.5	0.1	2.8	-19.3	-1.8%
Cc1nccn1CC(O)COC1CCCCC1 (stereo not drawn)	-0.4	u	x	1.2	2.3	-5.3	-5.4	-8.3%
CC(=O)c1cc2c(cc1NS(=O)(=O)c1ccc3c(c1)OCCO3)OCO2	0.3	1.8	x	0.0	4.7	-23.6	8.9	8.5%
COc1cc(OC)cc(C(=O)NCc2cccnc2)c1	0.5	1.9	x	5.6	-10.8	-1.9	-12.3	1.5%
Cc1onc(-c2ccccc2Cl)c1C(=O)N1CCC(Cc2ccccc2)CC1	0.1	-0.8	6.4	2.9	-34.3	52.3	12.3	9.7%
CC(C)CCN1CCN(Cc2ccc(C#CC(C)(C)O)s2)CC1CCO (stereo not drawn)	1.8	3.3	-2.4	1.4	-14.2	-1.0	16.1	x
N#C/C(=C(\O)Cc1ccccc1)c1nc2ccccc2[nH]1	-0.2	0.1	x	1.5	-4.1	8.9	-29.1	3.0%
Cc1ccc(S(=O)(=O)NCc2ccncc2)cc1	1.4	-0.2	x	1.0	36.8	53.2	-46.1	-0.6%
CC(C)n1c(-c2ccco2)csc1=Nc1cccnc1	-0.4	-2.9	x	0.8	2.7	34.1	14.3	-2.4%
O=C(NCC1CCCO1)C1CCN(S(=O)(=O)c2cc(Cl)ccc2Cl)CC1 (stereo not drawn)	-0.2	2.3	-3.2	13.2*	43.3	2.2	-5.5	x
CCCNC(=O)c1ccc2c(c1)S(=O)(=O)c1ccccc1C2=O	-0.4	6.6	1.5	-4.4	6.2	1.4	-7.3	x
CC1CN(C(=O)COc2ncnc3ccccc23)CC(C)O1 (stereo not drawn)	-1.8	0.5	x	-1.5	0.3	x	-16.1	-8.8%
Cc1ccc(C(=O)c2coc3ccc(O)c(Cl)c23)cc1	-2.8	0.4	x	-0.5	21.4	-6.4	2.0	15.9%
COC(=O)c1ccc(NC(=O)c2ccc3c(c2)C(=O)N(Cc2cccnc2)C3=O)cc1	-0.9	5.6	-0.1	-5.0	-5.6	-4.7	-10.1	-4.4%
O=C(NNC(=O)C1C2CCC(C2)C1C(=O)O)c1cccc(Cl)c1 (stereo not drawn)	0.5	-0.4	-1.4	-5.5	5.3	-3.2	0.1	23.2%
COc1cccc(-c2nc(-c3ccc(NC(=O)c4ccncc4)cc3)no2)c1	-0.7	7.5	x	0.2	0.2	7.8	-1.3	-3.7%
COc1cc(-c2nnc3sc(-c4ccncc4)nn23)cc(OC)c1OC	0.3	0.6	-3.8	-1.1	-0.5	1.8	2.3	x
Cc1ccccc1NC(=S)Nn1cnnc1	0.1	-0.8	-3.4	2.5	1.9	-1.5	8.7	x
Cc1ccc(C(=O)Nc2c(C)n(C)n(-c3ccccc3)c2=O)cc1S(=O)(=O)N1CCCCC1	0.5	x	-0.7	-5.6	x	2.5	x	x
O=C(Nc1scc(-c2ccccc2)c1C(=O)O)c1ccccc1Cl	-1.2	-2.6	2.0	2.3	-8.7	0.0	0.4	3.3%
Cc1c(C=O)n(C)n(-c2ccccc2)c1=O	u	8.5	-0.8	0.5	24.6	-3.9	-4.5	-4.4%
COc1cc(C(=O)NCCC(=O)NC2CCC(C)CC2)cc(OC)c1OC (stereo not drawn)	0.6	0.5	-5.0	-2.5	-9.5	1.3	-5.6	-4.5%

2 neighbouring entries from above:
SMILES	A1 inh	RanGTP-Imp inh	AF4-AF9 inh	LANA-H2A inh	Calb FLC	Beta cell apopt	T cruzi repl	Vif A3G
Cc1c(C=O)n(C)n(-c2ccccc2)c1=O	u	8.5	-0.8	0.5	24.6	-3.9	-4.5	-4.4%
COc1cc(C(=O)NCCC(=O)NC2CCC(C)CC2)cc(OC)c1OC (stereo not drawn)	0.6	0.5	-5.0	-2.5	-9.5	1.3	-5.6	-4.5%

Additional compounds follow:
SMILES	A1 inh	RanGTP-Imp inh	AF4-AF9 inh	LANA-H2A inh	Calb FLC	Beta cell apopt	T cruzi repl	Vif A3G
CCOC(=O)C1(CCCc2ccccc2)CCN(Cc2cnc(C)s2)CC1	-0.1	3.0	7.9	-7.8	-12.5	47.9	31.1	5.5%
CC1CN(C(=O)/C=C/c2ccc(SC(F)F)cc2)CC(C)O1 (stereo not drawn)	0.7	-0.7	2.5	0.5	3.6	-3.3	-10.7	-4.4%
CCN1CCN(CC(=O)Nc2cccc(C)c2C)C(=O)C1=O	0.6	3.3	-1.8	1.6	-5.0	x	-2.1	1.1%
CCC(C)[C@H](NC(=O)[C@@H]1CSC2c3ccccc3C(=O)N21)C(=O)NCC1CCCO1 (stereo partly drawn)	-0.5	1.6	-2.7	-5.6	-6.6	-5.0	1.0	0.3%
COc1cccc(C2C(C#N)=C(N)Oc3cc(C)n(Cc4ccccn4)c(=O)c32)c1OC (stereo not drawn)	-0.4	-1.9	x	-4.6	-5.1	1.1	-15.1	-19.6%&0.7%
COc1ccc(OCCCC(=O)NNC(=O)c2ccncc2)cc1	1.4	0.1	-1.8	0.9	14.9	x	-0.4	3.4%
O=C(c1ccc(Cl)cc1)N1CCC(C(=O)N2CCN(c3ncccn3)CC2)CC1	-0.7	x	-7.4	2.1	x	-6.1	x	x
CCC(C)N(C)C1CCN(C(=S)Nc2cccc(SC)c2)CC1 (stereo not drawn)	0.7	-4.4	10.9	1.0	-4.2	-8.0	1.4	x
CC(CCc1ccccc1)NC(=O)COC(=O)C(CCC(N)=O)NC(=O)c1ccc(F)cc1 (stereo not drawn)	-0.2	x	-0.5	-0.2	x	-3.5	x	x
O=C(COC(=O)CNC(=O)C1CCCCC1)Nc1ccccc1Cl	0.1	x	-2.0	3.7	x	3.4	x	x
Cc1c(C)n(C)c2ccc(C(=O)Nc3cccc4ccccc34)cc12	-0.3	-1.0	x	-1.3	-6.9	3.1	11.9	-39.2%
N#CC(=C=[N-])c1nc2ccccc2nc1-[n+]1cccc(NC(=O)c2cccs2)c1	-0.3	0.3	-49.2	6.6	-3.4	6.2	-3.0	u
CC(=O)C(/C=N/c1cc(-c2ccc(C)cc2)nn1-c1ccccc1)=C(\C)O	-2.0	-3.0	3.4	3.7	-6.0	6.1	-6.6	x
CC(C)CCN1C(=O)c2ccc(C(=O)Nc3c[nH]c(=O)[nH]c3=O)cc2C1=O	1.4	x	-1.7	3.5	-6.2	3.5	-0.8	12.5%
Cc1ccc(N2C(=O)CC(N3CCN(C)CC3)C2=O)cc1 (stereo not drawn)	x	3.0	x	x	0.2	x	0.3	0.2%
CCCn1c(SCC(=O)N(C)C2CCS(=O)(=O)C2)nc2sc3c(c2c1=O)CCC3 (stereo not drawn)	1.2	x	-1.0	5.9	x	-10.0	x	3.3%
COc1ccc(-n2c(=O)[nH]cc(C(=O)Nc3ccc4c(c3)OCO4)c2=O)cc1OC	1.0	4.8	-0.3	-0.8	-1.7	-8.1	5.2	1.8%
Cc1cc2nc(CCl)cc(=O)n2[nH]1	-0.6	1.8	-1.1	0.7	-1.8	-5.5	-4.6	24.0%
CN(C)c1cccc(C(=O)Nc2cccc(F)c2)c1	-10.3	-4.1	x	10.3	0.1	-5.1	14.1	1.1%
O=C(CSc1nc2ccccc2[nH]1)NCCCn1ccnc1	0.0	5.5	x	-7.5	-7.0	-12.3	-13.6	12.6%
CCCCN=C1CC(C)(C)CC(=O)/C1=C(/O)CCCN1C(=O)c2ccccc2C1=O	-0.5	1.2	-1.1	x	5.8	-2.5	18.6	1.1%
COc1ccc(-c2nnn(CC(=O)OC3CCCCC3)n2)cc1OC	-1.1	2.1	x	1.3	-1.0	2.8	-8.7	6.2%
COc1ccccc1NC(=O)CSc1nc(N)c(C#N)cc1C#N	-0.4	-0.6	-0.9	-1.5	12.4	x	-7.8	x
CCc1cc2c(=O)n(C(C)C(=O)OC3CCCCC3)cnc2s1 (stereo not drawn)	0.7	1.1	x	-5.9	u	-0.1	22.9	4.8%
c1ccc(Cc2nnc3n2CCCCC3)cc1	-0.2	0.8	x	-9.0	1.2	-3.8	-18.4	-1.2%
CC(C)n1c(N2CCN(C(=O)N3CCCCC3)CC2)nc2ccccc21	-0.7	3.3	x	0.2	6.7	3.2	-8.1	-4.5%
Brc1csc2ncccc12	-0.4	3.8	-2.9	4.0	3.1	-3.2	-14.8	-2.5%

Screening results as filed in PubChem BioAssay.
